# Source: PubChem BioAssay
# Env fusion inh: blocks HIV Env-driven cell-cell fusion. HeLa-JRFL Env/CEM21 cell fusion, luciferase. inhibition, % at 12.3 µM. 360,000 tested, 1.1% active. AID 651610;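 active means mean replicate inhibition score of at least 50 and every replicate individually at or above 50; inconclusive means only one of the two criteria met; inactive means mean below 50 and not all replicates reaching 50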;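 further: 0% = plate neutral controls and 100% = maraviroc near 300 nM; one replicate is shown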
# CSC inhib: blocks cancer stem cells. inhibition, % at 7.5 µM. cancer stem cell-like cells viability, luminescence. 300,000 tested, 1.1% active;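 active means mean at 75% or more and at least half the replicates too; inconclusive means mean and replicates disagree; tested in HMLE shEcad cells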;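 further: 0% = median of negative and 100% = median of positive control wells; the first replicate is given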
# Rce1 inh: blocks yeast Ras-converting enzyme; AID 2563; Q03530; yeast membranes, quenched prenylated peptide cleavage fluorescence; 290,000 tested, 0.27% active; calls only;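 active means fall in fluorescence gain of 50% or more versus controls, with final raw signal at or below 3038400; inconclusive means same 50% fall but final raw signal above 3038400; inactive means fall in fluorescence gain under 50%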;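 further: plate controls were neutral control wells for no effect and wells lacking membranes for full effect; tested at 10 µM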
# Target sequence (Q03530 whole entry, looked up): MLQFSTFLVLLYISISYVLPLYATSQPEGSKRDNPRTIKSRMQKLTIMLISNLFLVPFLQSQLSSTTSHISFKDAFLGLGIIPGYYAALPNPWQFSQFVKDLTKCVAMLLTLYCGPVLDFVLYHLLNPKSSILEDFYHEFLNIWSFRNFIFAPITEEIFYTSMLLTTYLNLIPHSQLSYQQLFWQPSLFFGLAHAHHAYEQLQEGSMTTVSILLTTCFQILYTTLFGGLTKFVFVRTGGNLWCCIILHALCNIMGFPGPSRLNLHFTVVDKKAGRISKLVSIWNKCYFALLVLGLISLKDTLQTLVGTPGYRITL
# PABP FP inh: PABP-poly(A) binding inhibition | P11940 | PABP-poly(A) RNA binding, fluorescence polarization | inhibition, % at 35 µM | 290,000 tested, 1% active | AID 2014;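 active means 50% or more with normal probe brightness, or confirmed in later tests; inconclusive means above 50% with abnormal brightness, or retests that disagree; inactive means below 50% or failed in later tests; about a fifth of its hits are not listed in these tables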;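 further: calls also rest on retests at 20 µM and on dose response follow-up; controls were probe without protein and protein plus probe with vehicle; some compounds called inactive have numbers as strong as hits; many hits fall short of the cut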
# MT1-MMP act inh: blocks activation of human MT1-MMP; HT1080 RFP-PRO-GFP cells, GFP/RFP ratio fluorescence, overnight; percent of plate control window, DMSO zero; GFP/RFP ratio change, % at 20 µM; 360,000 tested, 0.061% active; AID 651647;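 active means GFP/RFP ratio change of at least 30% with cell ATP level not reduced by more than half and red fluorescence within 50% of control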; further: strong numbers were not always called active
#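 Material: RFP-PRO-GFP reporter HT1080 cells. Dosing: single-point 20 µM compound, 1% DMSO. Controls: DMSO and RFP-L50D-GFP cell wells. Timing: cells overnight before dosing, compound overnight, 37 °C, 5% CO2. Measure: GFP/RFP fluorescence ratio.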
# Yeast UUG start: modulators of start codon recognition fidelity in yeast. S. cerevisiae UUG-firefly luciferase reporter, luminescence/redox ratio. activity score, % at 18.7 µM. 350,000 tested, 0.13% active;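 active means replicate mean at a twofold rise or more, about +100% in these data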;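 further: firefly luciferase made from a UUG start codon reports start codon fidelity; reporter light over untreated wells divided by growth signal over untreated wells; some hits fall short of that in this replicate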
# eIF4H FP inh: inhibitors of RNA binding by human eIF4H. Q15056. eIF4H fluorescence polarization binding assay. inhibition, % at 35 µM. 290,000 tested, 0.94% active. AID 2012;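 active means 50% or more with normal probe brightness, or confirmed in later tests; inconclusive means above 50% with abnormal brightness, or retests that disagree; inactive means below 50% or failed in later tests; about a fifth of its hits are not listed in these tables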;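 further: calls also rest on retests at 20 µM and on dose response follow-up; 0% = protein and probe with vehicle and 100% = probe without protein; strong numbers were not always called active; many hits fall short of the cut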
# MT1-MMP act inh RFP: recorded beside MT1-MMP act inh, whose call it bears; RFP signal change, %; measured here: RFP expression control read;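 0 = vehicle wells; hits needed this value within 50% of zero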
# * marks the source's active call; other numbers are inactive results; i = inactive; ? = inconclusive; . = not tested or not shown; & = joins results of further samples.
SMILES,Env fusion inh,CSC inhib,Rce1 inh,PABP FP inh,MT1-MMP act inh,MT1-MMP act inh RFP,Yeast UUG start,eIF4H FP inh
CCCCn1c(N)c(N(CC(C)C)C(=O)C2CCN(S(=O)(=O)c3ccccc3)CC2)c(=O)[nH]c1=O,6,-4,.,.,-4,-2,.,.
Cc1nc([N+](=O)[O-])cn1CC(=O)c1ccc(F)cc1,.,-8,i,-2,0,-3,-3,3
COc1ccc(OC)c(NC(=O)C2(C)CCN2Cc2cccc(OC)c2F)c1 (stereo unspecified),26,.,.,.,-3,-9,1,.
Cc1ccnc(NC(=O)CS(=O)(=O)Cc2ccccc2)c1,-115,5,i,5,2,-2,0,5
Cc1ccc(NC(=O)COC(=O)c2oc3ccccc3c2C)cc1S(=O)(=O)N1CCOCC1,-11,.,.,.,2,-3,-8,.
CCOC(=O)C1CCN(C(=O)CSc2nnc(-c3ccco3)n2-c2ccccc2)CC1,.,-12,i,6,-3,0,-14,0
COc1ccc(NC(=O)CN(C)C2CCCCC2)c([N+](=O)[O-])c1,-5,-7,i,-7,-3,2,-11,-4
Cc1cc(=O)oc2c3c(cc(OCC(=O)NCc4cccnc4)c12)OC(C)(C)CC3,.,1,i,8,2,1,-13,20
Cc1nnc(SCC(=O)c2cc(C)n(C3CC3)c2C)s1,.,6,i,2,2,3,.,9
CN(Cc1cnn(C)c1)Cc1nc(COc2ccccc2)no1,-18,10,i,1,-5,0,-15,-7
O=C(OCC(=O)c1ccc[nH]1)c1ccc(S(=O)(=O)N2CCCCC2)cc1,.,.,i,-14,.,.,.,-3
CCCCNC(=O)N(CC)c1c(N)n(Cc2ccccc2)c(=O)[nH]c1=O,7,-5,i,-9,-1,2,.,-1
O=C(Nc1cnccn1)c1csc2ccccc12,.,-3,i,0,1,7,2,-3
O=C(COc1ccccc1Br)NCc1ccco1,-9,-1,i,-4,-1,-1,-11,-4
CN(C)CCCNc1nc(-c2ccc(Cl)cc2)nc2ccccc12,20,9,i,2,-9,-3,-6,-13
COc1ccccc1Cc1nnc(NC(=O)C2CCN(C(=O)c3ccco3)CC2)s1,-8,13,i,5,2,-2,-7,-4
COc1ccc(/C=C2/N=C3CCCCCN3C2=O)cc1OC,-23,-7,i,12,5,10,-13,-9
O=C(N/C(=C\c1ccccc1)C(=O)N1CCCCCC1)c1ccccc1,15,-14,i,6,-2,2,.,2
Cc1ccc(S(=O)(=O)c2nc(C)oc2NCc2ccccc2)cc1,.,-11,.,-5,.,.,.,-7
Cc1ccc(S(=O)(=O)c2c(N)n(Cc3ccco3)c3nc4ccccc4nc23)cc1C,22,1,i,?,-89,4,-16,?
COc1ccc(NC(=O)C(C)N2C(=O)C3CC=C(Cl)CC3C2=O)cc1 (stereo unspecified),5,-7,i,3,-2,0,-2,-17
CCN1C(=O)[C@H]2[C@@H](c3ccc(-c4cccc(Cl)c4)c(OC)c3)N[C@@](CC(C)C)(C(=O)OC)[C@H]2C1=O,16,35,i,.,-20,-16,-6,.
CCNC(=S)N/N=C/c1cc(C)ccc1C,-18,.,i,-1,4,2,.,1
COc1cc(/C=N/N=C2/NC(=O)C(Cc3ccc(F)cc3)S2)ccc1O (stereo unspecified),5,-14,i,-3,-1,-1,.,3
O=C(NCCCc1ccccc1)c1cccc(S(=O)(=O)N2CCOCC2)c1,-7,.,.,.,3,2,-3,.
CC1CCN(C(=O)c2nc[nH]c2C(=O)N2CCC(C)CC2)CC1,-13,-3,.,.,0,3,-13,.
O=C(Nc1ccc(C(=O)O)cc1)/C(=C\c1ccc2c(c1)OCO2)NC(=O)c1ccc(Br)cc1,14,3,i,17,0,-1,-13,9
CC(C)CCc1noc(CN2CCC(C(=O)N3CCOCC3)CC2)n1,14,-4,i,-7,5,3,6,-6
CCc1nc2ccc(C(=O)N3CCCCC3)cn2c1N(C)CCCc1ccccc1,5,.,.,.,-2,2,-9,.
O=C(CN1C(=O)c2ccccc2S1(=O)=O)Nc1cccc(S(=O)(=O)N2CCOCC2)c1,-1,.,.,.,-2,0,-11,.
Cc1ccc(-c2n[nH]c(=O)c3ccccc23)cc1S(=O)(=O)N(C)C,17,-15,i,-4,5,-8,-1,6
Clc1ccc(/C=N/N2CCN(Cc3ccccc3Cl)CC2)cc1,-5,.,i,6,5,1,-10,7
OCCCC1CCCCN1Cc1nc(Cc2ccccc2Cl)no1 (stereo unspecified),13,-12,i,0,0,3,-9,-9
Cc1ccc2cc(F)c(F)c(F)c2n1,-9,.,.,.,2,8,-5,.
CCOc1ccc(S(=O)(=O)NCCC(=O)NCCc2ccc(OCC)c(OCC)c2)cc1,.,8,i,.,2,4,-2,.
COc1cccc(S(=O)(=O)N(C)C[C@H]2OCc3cn(nn3)CCCC(=O)N([C@@H](C)CO)C[C@@H]2C)c1,0,.,.,.,2,5,6&-12,.
CC(C)(C)NC(=O)CN1CCCN(C(=O)c2cccc(S(=O)(=O)N3CCc4ccccc43)c2)CC1,.,0,.,.,4,-3,-1,.
O=C(NCC(c1ccco1)N1CCN(c2ccccc2)CC1)C1CCCCC1 (stereo unspecified),18,.,.,.,-1,0,-1,.
CC(C)C(OC(=O)c1cc2sccc2n1C)C(=O)NCC1CCCO1 (stereo unspecified),.,5,i,2,2,-4,.,-6
CCCOc1ccc(NC(=O)CC2Nc3ccccc3NC2=O)cc1 (stereo unspecified),4,-7,i,-5,5,-3,-13,-4
Cc1ccc(NCc2n[nH]c(=S)n2-c2cccc(Cl)c2)cc1,-6,-7,i,2,0,0,.,1
Cc1cc2ccccc2nc1SCC(=O)N1CCCC1,11,-19,i,-9,4,-2,0,-3
O=C(NCc1n[nH]c(=S)n1-c1cccc(C(F)(F)F)c1)c1ccc(S(=O)(=O)N2CCCC2)cc1,-23,15,i,-3,-1,-3,-12,8
O=C(O)CCS(=O)(=O)c1cccc2cccnc12,.,-9,i,-10,6,4,.,-12
COc1cccc(N/C=C/C(=O)c2ccc(C)cc2)c1,-243,12,i,3,1,-3,-41,5
Cc1onc(-c2ccccc2)c1C(=O)NCCc1c[nH]c2ccccc12,-53,-4,i,-14,0,3,12,-15
COC(=O)c1c(NC(=O)c2ccco2)sc(C(=O)N2CCCC2)c1C,.,.,i,-2,2,0,-17,1
O=S1(=O)N[C@@H](CC2CCCCC2)COc2cc(Br)ccc21,21,.,.,.,10,-13,-23,.
CC(C)(O)C#Cc1ccc(CNC[C@H]2O[C@@H](n3cnc(C(N)=O)n3)[C@H](O)[C@@H]2O)s1,7,.,.,.,1,1,-12,.
O=C(NCc1ccc(Cl)cc1)C1CCN(C(=O)c2ccc(Cl)cc2)CC1,-15,.,.,.,3,-1,-4,.
COc1ccc2oc(=O)cc(CN(C)Cc3ccccc3)c2c1,11,-8,i,9,.,.,-3,8
CN(C)S(=O)(=O)c1ccc(Cl)c(C(=O)OCC(=O)NC(=O)NC2CCCC2)c1,.,-5,.,.,0,-1,-2,.
CC(C)CC(=O)Nc1ccc(F)c(Cl)c1,11,-3,i,1,0,0,-17,-5
CCc1nnc(NS(=O)(=O)c2ccccc2)s1,0,5,i,6,-4,4,-19,3
CC1(C)OC(=O)CC1C(=O)NCc1ccccc1 (stereo unspecified),13,-4,i,9,0,0,-14,-6
COc1ccc(NC(=O)CSc2nnc(Cn3c(=O)sc4ccccc43)n2C)cc1OC,-5,13,.,-8,0,1,2,-4
CCOc1ccc(NC(=O)CC2C(=O)N(c3ccc(OCC)cc3)C(=S)N2C2CC2)cc1 (stereo unspecified),1,-3,i,11,5,-3,-11,2
O=C(c1ccc(F)cc1)C(C(=O)N1CCCCC1)n1ccccc1=O (stereo unspecified),-3,30,i,-1,1,4,-15,-3
O=C(Nc1cc(S(=O)(=O)N2CCCCC2)ccc1Cl)C1=NN(c2ccccc2)C(=O)CC1,1,18,i,8,1,-2,-18,-3
Cn1c(SCC(=O)Nc2ccc(N3CCOCC3)cc2)nnc1-c1ccco1,-1,.,i,-2,2,3,-15,-7

# Additional entries follow:
SMILES,Env fusion inh,CSC inhib,Rce1 inh,PABP FP inh,MT1-MMP act inh,MT1-MMP act inh RFP,Yeast UUG start,eIF4H FP inh
Cc1cc(C)c(S(=O)(=O)N(C)CC(=O)N2CCCC2)c(C)c1,-22,.,.,.,4,3,4,.
O=C(Nc1ccccc1)c1sc(Cl)nc1-c1ccccc1,17,-2,i,17,1,1,-15,8
CCCNC(=O)C1(C)CCN(Cc2ccc(-c3ccccn3)cc2)C1 (stereo unspecified),-17,.,.,.,1,0,5,.
O=C(Cn1cnc(Cl)c1Cl)c1ccc(F)cc1,7,-1,i,12,-1,1,.,10
Cc1cc(C)nc(NC2=NCCN2C(=O)NC2CCCCC2)n1,.,-6,i,-1,0,-2,-9,1
CC(NC(=O)CCSCCC(=O)NC(C)c1ccccc1)c1ccccc1 (stereo unspecified),-7,18,i,-5,1,4,-4,13
O=C(Nc1ccccc1F)c1ccc2snnc2c1,-19,-8,i,8,0,-2,-14,-2
COc1ccc(CCNC(=O)c2ccccc2NC(=O)CN2CCN(c3ccccc3O)CC2)cc1,8,.,.,.,-1,-9,-4,.
O=S(=O)(NCC(O)c1ccccc1)c1ccc(-c2ccccn2)s1 (stereo unspecified),10,0,i,19,2,-9,.,-8
CCOC(=O)CNC(=S)N(CCCN1CCCCC1)Cc1cccs1,-3,-13,i,-7,1,2,.,-8
CC1(C(=O)O)CCC(C(=O)Nc2cccc(F)c2)C1(C)C (stereo unspecified),18,-9,i,2,-1,0,6,-4
Cc1ccc(CNC(=O)Cc2ccc(NC3=NC4CS(=O)(=O)CC4S3)cc2)cc1 (stereo unspecified),3,-7,i,-6,-3,1,-21,-13
NC(=O)CSc1nnc2ccc(-c3ccc(F)cc3)nn12,7,-15,i,-8,1,4,-18,-12
COc1ccc(Nc2ncnc3ccc(Br)cc23)c(OC)c1,31,-9,i,-8,-3,-4,-41,-10
CCn1nnc2cc(C(=O)Nc3ccc(C(=O)OC(C)C)cc3)ccc21,19,-1,.,.,8,-2,5,.
Cc1nc(CSc2nnc(N)s2)cs1,14,-5,.,-5,-1,1,.,0
COc1ccc(N2CCN(C(=O)c3ccc(N(C)S(=O)(=O)c4ccc(OC)cc4)cc3)CC2)cc1,17,.,i,5,-4,-15,.,-11
CCCCNC(=S)NC1CCCC1,4,-7,i,0,9,13,-21,-4
COc1ccc(C(O)c2ncc(-c3ccc4ccccc4c3)[nH]2)cc1 (stereo unspecified),-16,.,.,.,-2,-3,-7,.
COc1ccc(CN=CC2=C(O)CC(C)(C)CC2=O)cc1,6,-14,i,-4,5,3,-3,-5
COc1cc(OC)cc(C(=O)n2cnnc2N)c1,-6,6,i,-8,-1,1,-20,2
CC(=O)c1ccc(NC(=O)CSc2nc3nn(-c4ccccc4)c(=O)c-3c3n2CCCCC3)cc1,7,.,.,.,0,-2,-10,.
Cc1ccc(OC(=O)C23CC4CC(CC(C4)C2)C3)c(C)n1,-3,-21,i,-13,0,0,.,-14

# Complete entries, quoted from the list. Screens in order: Env fusion inh	CSC inhib	Rce1 inh	PABP FP inh	MT1-MMP act inh	MT1-MMP act inh RFP	Yeast UUG start	eIF4H FP inh
# CN(C)CCCNc1nc(-c2ccc(Cl)cc2)nc2ccccc12 in the list: 20	9	i	2	-9	-3	-6	-13
# O=S1(=O)N[C@@H](CC2CCCCC2)COc2cc(Br)ccc21 in the list: 21	.	.	.	10	-13	-23	.
# O=C(NCC(c1ccco1)N1CCN(c2ccccc2)CC1)C1CCCCC1 (stereo unspecified) in the list: 18	.	.	.	-1	0	-1	.
